Lassa entry inh – inhibitors of Lassa virus binding or cell entry; Lassa virus pseudotype entry inhibition, cell reporter; control for the full effect not named in the record; Potency, µM (titrated, usually from 37.9 µM), inactives show at the top dose activity change, negative = inhibition, usual class: inhibitors; actives 1.2% (n = 300,000); active means well fitted inhibition curve with a large enough effect; inconclusive means small, poorly fitted or top-dose-only effect, or effect the other way; inactive means flat fitted curve, though single readings scatter; tested in HEK293 cells; also: % is scaled to controls: 0 for no effect and ±100 for the full control effect; nearly all actives have a fitted effect of over 50% in size; luciferase read-out
Cruzain inh Det – cruzain (T. cruzi) inhibition with detergent. actives 0.43% (n = 200,000). Potency, µM, inactives show max response, negative = inhibition, most hits filed as inhibitors. P25779. purified cruzain, Z-FR-AMC fluorescence, 0.01% Triton; active = well fitted curve in the direction sought with a large enough effect; inconclusive = small, poorly fitted or top-dose-only effect, or another doubt; inactive = no such curve, though single readings can be large; an effect the other way counts as inactive or inconclusive;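 also: plate controls were neutral wells for no effect and buffer without enzyme for full effect; nearly all actives have a fitted effect of over 40% in size; top concentration of the series not given in the record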
Target sequence (P25779 123-467 limits assumed): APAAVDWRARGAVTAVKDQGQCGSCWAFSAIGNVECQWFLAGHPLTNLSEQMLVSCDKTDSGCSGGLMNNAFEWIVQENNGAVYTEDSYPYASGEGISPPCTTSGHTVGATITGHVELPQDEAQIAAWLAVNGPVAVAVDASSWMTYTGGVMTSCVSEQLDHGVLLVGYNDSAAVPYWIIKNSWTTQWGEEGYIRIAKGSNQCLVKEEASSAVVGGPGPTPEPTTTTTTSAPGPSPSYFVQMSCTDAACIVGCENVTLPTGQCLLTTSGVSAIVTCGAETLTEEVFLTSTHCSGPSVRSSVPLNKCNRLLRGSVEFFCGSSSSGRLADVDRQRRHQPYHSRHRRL
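Steps: dispense cruzain (1.5 nM final) in acetate buffer pH 5.5 with DTT and 0.01% Triton X-100; pin-transfer compounds; incubate 15 min RT; add Z-FR-AMC (2 uM final); read fluorescence every 30 s, using the 60 s intensity change.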
MARV entry inh – inhibitors of Marburg virus binding or cell entry. actives 1.8% (n = 300,000). Marburg virus pseudotyped entry inhibition, cell reporter; control for the full effect not named in the record; about a third of the inactives were read at about 46 µM. Potency, µM (doses to about 37.8 µM), for the others: top-dose activity change, negative = inhibition, most hits filed as inhibitors; active = well fitted inhibition curve with a large enough effect; inconclusive = small, poorly fitted or top-dose-only effect, or effect the other way; inactive = flat fitted curve, though single readings scatter; tested in HEK293 cells; about a fifth of its hits are not listed in these tables; also: % is scaled to controls: 0 for no effect and ±100 for the full control effect; luciferase read-out
RE007 growth inh – less growth of the S. pombe RE007 Vpr strain | S. pombe RE007 Vpr strain, BacTiter-Glo ATP luminescence, 24 h; control for the full effect not named in the record | actives 0.21% (n = 360,000) | Potency, µM (doses to about 92.2 µM), for the others: top-dose activity change, negative = less growth; active = well fitted falling curve with a large enough effect; inconclusive = small, poorly fitted or top-dose-only effect; inactive = no such curve, though single readings can be large or run the other way;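 also: % is scaled to controls: 0 for no effect and ±100 for the full control effect; nearly all actives have a fitted effect of over 50% in size; the assay follows cell death caused by Vpr and the record does not say whether a fall means rescue or toxicity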
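Fission yeast RE007 carrying one integrated HIV-1 vpr copy, seeded at OD 0.01 in PMG+AL medium with 23 nL pinned compound. Grown 24 h at 30 degrees; viability read by BacTiter-Glo luminescence after 5 min.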
SARS PLpro yeast – SARS-CoV PLP inhibition in yeast | S. cerevisiae expressing SARS-CoV PLpro, growth rescue; control for the full effect not named in the record | Potency, µM (series often up to 32.9 µM), for the others: top-dose activity, positive = growth rescue | actives 0.19% (n = 330,000) | AID 485353; also: 0% is about no effect; nearly all actives have a fitted effect of over 55% in size; growth read by luminescence after 48 h
NS1 function inh – influenza NS1 inhibition; S. cerevisiae slowed by influenza A NS1, growth recovery by OD600; Potency, µM (titrated, usually from 46.1 µM), for the others: at the top dose activity, positive = more growth; actives 0.4% (n = 270,000); also: actives are rising curves; nearly all actives have a fitted effect of over 50% in size
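S. cerevisiae expressing influenza A NS1, grown in glucose, washed, then diluted 1:100 into pH 6.0 -URA galactose medium with 23 nl compound. Growth recovery read as OD600; NS1-free strain serves as control.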
2A StopGo – FMDV 2A StopGo reporter, luciferase signal | human cells with a luciferase reporter of 2A StopGo recoding; control for the full effect not named in the record | Potency, µM (doses to about 57.9 µM), for inactives: at the top dose signal change, negative = less light | actives 1.2% (n = 410,000); active = well fitted falling curve with a large enough effect; inconclusive = small, poorly fitted or top-dose-only effect; inactive = no such curve, though single readings can be large or run the other way; tested in HEK293T cells; also: % is scaled to controls: 0 for no effect and ±100 for the full control effect; nearly all actives have a fitted effect of over 45% in size; luciferase light after 4 h
Cruzain noTriton – cruzain (T. cruzi) inhibition without detergent; P25779; purified cruzain, Z-FR-AMC fluorescence, no detergent; Potency, µM, for the others: max response, negative = inhibition, most hits filed as inhibitors; actives 2.3% (n = 200,000); active = well fitted curve in the direction sought with a large enough effect; inconclusive = small, poorly fitted or top-dose-only effect, or another doubt; inactive = no such curve, though single readings can be large; an effect the other way counts as inactive or inconclusive;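 also: plate controls were enzyme without inhibitor for no effect and buffer without enzyme for full effect; nearly all actives have a fitted effect of over 40% in size; top concentration of the series not given in the record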
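Purified cruzain at 1.5 nM, pre-incubated 15 min with compound at room temperature in 100 mM sodium acetate pH 5.5, 5 mM DTT, 0.00005% Triton X-100. Reaction started with 2 uM Z-FR-AMC; AMC fluorescence increase over 60 s gives rate.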
Active calls of the source: *; ? = inconclusive; · = no result given; [ ] = another dose, or the depositor's remark. Unless noted, calls follow the shape of the dose curve; as a rule, active means well fitted rising curve with a large enough effect; inconclusive means small, poorly fitted or top-dose-only effect; inactive means no such curve, though single readings can be large or run the other way. Potency is read from the fitted curve at half-maximal effect.

Below each SMILES: Lassa entry inh | RE007 growth inh | SARS PLpro yeast | MARV entry inh | 2A StopGo | Cruzain inh Det | NS1 function inh | Cruzain noTriton
COc1ccccc1N1CCN(C(=O)C2CCCN(c3ncnc4c3nc3n4CCCCC3)C2)CC1 (stereo not given)
 : ? | -5% | 20% | ? | ? | · | -5% | ·
COc1cccc(CN2CCN(Cc3ccon3)CC2CCO)c1 (stereo not given)
 : 5%[46.1 µM] | -11% | -1% | 17%[46.1 µM] | 2% | · | 0% | ·
C/C(=N\NC(=O)COc1ccc(C(C)(C)C)cc1)c1ccc(N2CCOCC2)cc1
 : 1.3µM* | -4% | 3% | 13% | -9% | -3.5% | 4% | ?
Cn1c(SCC(=O)Nc2ccc3cn[nH]c3c2)nnc1-c1cnccn1
 : ? | 8% | 2% | 4% | -5% | 0.8% | 14% | 0%
COc1cc(C(=O)N[C@@H](C)C(=O)NCc2ccco2)cc(OC)c1OC
 : 10% | 6% | -1% | -10%[46.1 µM] | 0% | · | · | ·
O=C(Nc1cccc(S(=O)(=O)Nc2ccccc2Cl)c1)c1ccc(N2CCCC2)c([N+](=O)[O-])c1
 : -13% | 14% | 21% | ? | 5% | -1.1% | 2% | 10µM*
Cc1cc(C)c2c(=O)cc(C(=O)Nc3ccccc3C(F)(F)F)oc2c1
 : 0%[46.1 µM] | · | · | 15%[46.1 µM] | -18% | -1.7% | · | 1%
CC(Oc1ccc2c(-c3ccccc3)cc(=O)oc2c1)C(=O)N1CCC[C@@H]1C(N)=O (stereo not given in full)
 : · | 0% | 5% | · | 18% | · | 10% | ·
O=C(C1CN(C(=O)c2cc3cc(Cl)ccc3o2)c2ccccc2O1)N1CCCCC1 (stereo not given)
 : -21% | 21% | -7% | ? | ? | · | · | ·
O=C(C1CCCCN1S(=O)(=O)c1ccccc1)N1CCN(C(c2ccccc2)c2ccccc2)CC1 (stereo not given)
 : -38% | -6% | -2% | ? | -19% | 0.0% | 22% | -10%
Cc1csc(=O)n1CC(=O)OCC(=O)Nc1ccc(F)c(F)c1
 : 2% | 4% | -1% | 5%[46.1 µM] | 2% | · | · | ·
CCOC(=O)CSc1nc2ccccc2n1CC(=O)N1CCN(c2ccccc2)CC1
 : 9%[14.3 µM] | -2% | 4% | -28% | -21% | 5.8% | -12% | 6%
CCOc1ccc(CCNC(=O)CCOc2cc(C)ccc2C)cc1OCC
 : 28% | 2% | 7% | ? | 7% | · | -10% | ·
Cc1ccc2cccc(Oc3ncnc4sc(C)c(C)c34)c2n1
 : 12% | 10% | -10% | -1%[46.1 µM] | -11% | -3.9% | 2% | 8%
O=S(=O)(Nc1ccc(Cc2ccncc2)cc1)c1ccc(Br)s1
 : ? | 2% | -13% | ? | 17% | -2.5% | -13% | -1%
COc1cccc(NC(=O)C(C)OC(=O)CCCNC(=O)c2ccc(Cl)cc2)c1 (stereo not given)
 : 12% | 3% | 4% | 3% | 38%[activator] | · | 7% | ·
O=C(NCCCN1CCOCC1)c1ccc(CS(=O)(=O)Cc2ccccc2Cl)o1
 : 2% | -1% | 6% | 5% | 0% | 3.2% | -3% | -3%
COc1ccc(CNC(=O)C(=O)NCc2cccnc2)cc1
 : 2%[46.1 µM] | 10% | 0% | -22%[46.1 µM] | -1% | · | -5% | ·
O=C(CCn1c(=O)oc2ccccc21)NCCN1CCc2ccccc2C1
 : -6% | 2% | 2% | 3% | 5% | 2.5% | -5% | -5%
CN(Cc1nccs1)C(=O)C1CCC(=O)N(CCc2ccc(Cl)cc2)C1 (stereo not given)
 : · | 7% | -2% | · | 2% | · | -12% | ·
Cc1cc(C(=O)CSc2nnc(CCC(N)=O)n2C)c(C)n1C1CC1
 : 1% | 0% | 3% | 5% | -2% | · | · | ·
Cc1ccc(NC(=O)CCNC(=O)c2ccccc2)cc1F
 : 9%[46.1 µM] | 4% | 0% | 22%[46.1 µM] | 3% | · | -2% | ·
C/C(=N\NC(=O)c1ccc(N(C)C)cc1)c1ccc(C)c(C)c1
 : 15% | -4% | -25% | 17% | 20% | -5.3% | 5% | 9%
C[C@H](NC(=O)C1CCN(S(=O)(=O)c2ccccc2)CC1)C(=O)NCc1ccc(F)cc1
 : · | 8% | 5% | · | -10% | · | -15% | ·
NC(=O)CC(NC(=O)Cc1ccc(Br)cc1)c1ccc(N2CCN(c3ccccn3)CC2)c([N+](=O)[O-])c1 (stereo not given)
 : · | -7% | -7% | · | ? | · | 9% | ·
c1ccc(-c2cn(C[C@H]3CC[C@@H]([C@@H]4CC[C@H](Cn5cc(-c6ccccc6)nn5)O4)O3)nn2)cc1
 : · | -4% | 2% | · | 8% | · | 6% | ·
COc1ccc(N2CCN(C(CNS(=O)(=O)c3c(C)cc(C)cc3C)c3ccco3)CC2)cc1 (stereo not given)
 : -18%[46.1 µM] | · | · | · | -5% | -6.2% | · | -2%
Cn1c(CCN2CCCCC2)nc2cc(NS(=O)(=O)c3ccccc3)ccc21
 : -13% | 2% | -1% | -25% | 0% | 4.1% | -1% | -1%
COc1cc(OC)cc(-c2nnc(SCC(=O)N(Cc3ccccc3)C(C)(C)C)o2)c1
 : -13% | 1% | -1% | ? | -6% | -3.3% | -8% | 11%
CCOC(=O)c1c(C)[nH]c(C)c1S(=O)(=O)NCc1ccccc1OCC
 : · | 2% | 6% | · | 13% | · | 7% | ·
COC(=O)c1ccc(C(=O)OC)c(NC(=O)CN2CCCCC2)c1
 : 2%[46.1 µM] | 6% | 1% | -3%[46.1 µM] | -9% | · | · | ·
Cc1cc(Nc2ccc(C(=O)O)c(O)c2)n2ncnc2n1
 : 14%[46.1 µM] | · | · | · | -18% | -3.7% | · | 6%
O=C(CSc1nnc(CNC(=O)c2c(F)cccc2Cl)o1)c1ccccc1
 : 5% | 5% | -24% | 9% | -2% | -3.3% | 7% | -2%
CC(C)(C)c1nnc(NC(=O)C2c3ccccc3Oc3ccccc32)s1
 : · | -17% | -2% | · | -23% | · | 4% | ·
Cn1cc(-c2cc3n(n2)CCC(=O)N3CCCC(=O)Nc2ccccc2Cl)c2ccccc21
 : -25%[46.1 µM] | · | · | · | -27% | -2.6% | · | ?
Cc1ccc(NC(=O)CN2CCc3ccccc3C2)cc1S(=O)(=O)N(C)C
 : -26% | 2% | -1% | -9%[46.1 µM] | -21% | · | -3% | ·
NC(=O)c1ccsc1NC(=O)c1nc(-c2ccccc2)n(-c2ccccc2)n1
 : ? | -2% | 0% | ? | -29% | -7.8% | ? | -1%
CCc1nnc(NC(=O)CCc2ccccc2OC)s1
 : 11% | -13% | -5% | ? | 18% | · | -2% | ·
Cn1c(NNC(=O)c2ccc(C(C)(C)C)cc2)cc(=O)n(C)c1=O
 : 6% | -3% | -2% | 1% | 0% | 1.0% | 15% | 13%
NC(=O)CSc1nnc(-c2ccco2)n1-c1ccccc1
 : · | 6% | 0% | · | -10% | · | 1% | ·

An excerpt of these results, with tabs.
canonical_smiles	Lassa entry inh	RE007 growth inh	SARS PLpro yeast	MARV entry inh	2A StopGo	Cruzain inh Det	NS1 function inh	Cruzain noTriton
O=C(Nc1cccc(S(=O)(=O)Nc2ccccc2Cl)c1)c1ccc(N2CCCC2)c([N+](=O)[O-])c1	-13%	14%	21%	?	5%	-1.1%	2%	10µM*
COc1cccc(NC(=O)C(C)OC(=O)CCCNC(=O)c2ccc(Cl)cc2)c1 (stereo not given)	12%	3%	4%	3%	38%[activator]	·	7%	·
COc1ccc(CNC(=O)C(=O)NCc2cccnc2)cc1	2%[46.1 µM]	10%	0%	-22%[46.1 µM]	-1%	·	-5%	·

(next part)
Below each SMILES: Lassa entry inh | RE007 growth inh | SARS PLpro yeast | MARV entry inh | 2A StopGo | Cruzain inh Det | NS1 function inh | Cruzain noTriton
CN(C)S(=O)(=O)NCCNC(=O)c1cc(OCC(F)(F)F)ccc1OCC(F)(F)F
 : ? | -10% | 0% | ? | 6% | · | 5% | ·
COC(=O)c1c(NC(=O)C(=O)NCCCN2CCOCC2)sc2c1CC(C)(C)OC2
 : ? | -14% | 0% | 12%[46.1 µM] | -3% | · | 0% | ·
Cc1cc(C)c(S(=O)(=O)N(CC(=O)O)CC(=O)O)c(C)c1
 : 8% | -6%[3.69 µM] | 1% | -24% | -8% | 5.5% | 3% | -4%
Clc1ccc(CSc2ccc(-c3ccccn3)nn2)cc1
 : ? | -17% | 1% | 6%[46.1 µM] | 22% | · | · | ·
COc1ccccc1NC(=O)c1ccc(NS(=O)(=O)c2cccc3cccnc23)cc1
 : -19% | 0% | 2% | -1% | 4% | -4.9% | -10% | -23%
COc1cccc(-c2nc(C(=O)NCCCN3CCOCC3)cc3c2[nH]c2ccccc23)c1
 : · | -3% | -6% | · | -28% | · | -10% | ·
CC1=C(C(=O)OCCOc2ccccc2)C(c2ccc(C)o2)C2=C(CC(C)(C)CC2=O)N1 (stereo not given)
 : ? | 27% | -5% | ? | -13% | -4.6% | 22% | 5%
CCOC(=O)C(C)Sc1nc2c(c(=O)[nH]c(=O)n2C)n1C/C=C(/C)Cl (stereo not given)
 : -26% | 13% | 5% | -31% | -27% | -5.0% | 16% | -2%
Cc1ccc(CSC2=Nc3ccccc3C3=NC(CCC(=O)NCc4cccs4)C(=O)N23)cc1 (stereo not given)
 : ? | · | · | · | 36%[activator] | -4.5% | · | 15%

Reprinted at random: 2 compounds from above, in no set order.
Below each SMILES: Lassa entry inh | RE007 growth inh | SARS PLpro yeast | MARV entry inh | 2A StopGo | Cruzain inh Det | NS1 function inh | Cruzain noTriton
Cc1ccc(CSC2=Nc3ccccc3C3=NC(CCC(=O)NCc4cccs4)C(=O)N23)cc1 (stereo not given)
 : ? | · | · | · | 36%[activator] | -4.5% | · | 15%
CN(C)S(=O)(=O)NCCNC(=O)c1cc(OCC(F)(F)F)ccc1OCC(F)(F)F
 : ? | -10% | 0% | ? | 6% | · | 5% | ·

Screens from PubChem.

Compounds were not picked by outcome; 4.7% or so of the library scored in one or more.
